Bioassay records as filed in PubChem.
nsP2pro primary – CHIKV nsP2 protease inhibition, primary qHTS. FRET peptide cleavage, nsP2pro, fluorescence 1 h. hit rate 1.1% among 31,000. Potency, µM (top dose mostly 24.9 µM), without a hit: at the highest dose activity change, negative = inhibition, actives largely listed as inhibitors. AID 1964107; active means well fitted inhibition curve with a large enough effect; inconclusive means small, poorly fitted or top-dose-only effect; inactive means no such curve, though single readings can be large or run the other way; also: nearly all actives have a fitted effect of over 60% in size; a reference inhibitor and vehicle were the controls
Target sequence (Q8JUX6 whole entry, looked up): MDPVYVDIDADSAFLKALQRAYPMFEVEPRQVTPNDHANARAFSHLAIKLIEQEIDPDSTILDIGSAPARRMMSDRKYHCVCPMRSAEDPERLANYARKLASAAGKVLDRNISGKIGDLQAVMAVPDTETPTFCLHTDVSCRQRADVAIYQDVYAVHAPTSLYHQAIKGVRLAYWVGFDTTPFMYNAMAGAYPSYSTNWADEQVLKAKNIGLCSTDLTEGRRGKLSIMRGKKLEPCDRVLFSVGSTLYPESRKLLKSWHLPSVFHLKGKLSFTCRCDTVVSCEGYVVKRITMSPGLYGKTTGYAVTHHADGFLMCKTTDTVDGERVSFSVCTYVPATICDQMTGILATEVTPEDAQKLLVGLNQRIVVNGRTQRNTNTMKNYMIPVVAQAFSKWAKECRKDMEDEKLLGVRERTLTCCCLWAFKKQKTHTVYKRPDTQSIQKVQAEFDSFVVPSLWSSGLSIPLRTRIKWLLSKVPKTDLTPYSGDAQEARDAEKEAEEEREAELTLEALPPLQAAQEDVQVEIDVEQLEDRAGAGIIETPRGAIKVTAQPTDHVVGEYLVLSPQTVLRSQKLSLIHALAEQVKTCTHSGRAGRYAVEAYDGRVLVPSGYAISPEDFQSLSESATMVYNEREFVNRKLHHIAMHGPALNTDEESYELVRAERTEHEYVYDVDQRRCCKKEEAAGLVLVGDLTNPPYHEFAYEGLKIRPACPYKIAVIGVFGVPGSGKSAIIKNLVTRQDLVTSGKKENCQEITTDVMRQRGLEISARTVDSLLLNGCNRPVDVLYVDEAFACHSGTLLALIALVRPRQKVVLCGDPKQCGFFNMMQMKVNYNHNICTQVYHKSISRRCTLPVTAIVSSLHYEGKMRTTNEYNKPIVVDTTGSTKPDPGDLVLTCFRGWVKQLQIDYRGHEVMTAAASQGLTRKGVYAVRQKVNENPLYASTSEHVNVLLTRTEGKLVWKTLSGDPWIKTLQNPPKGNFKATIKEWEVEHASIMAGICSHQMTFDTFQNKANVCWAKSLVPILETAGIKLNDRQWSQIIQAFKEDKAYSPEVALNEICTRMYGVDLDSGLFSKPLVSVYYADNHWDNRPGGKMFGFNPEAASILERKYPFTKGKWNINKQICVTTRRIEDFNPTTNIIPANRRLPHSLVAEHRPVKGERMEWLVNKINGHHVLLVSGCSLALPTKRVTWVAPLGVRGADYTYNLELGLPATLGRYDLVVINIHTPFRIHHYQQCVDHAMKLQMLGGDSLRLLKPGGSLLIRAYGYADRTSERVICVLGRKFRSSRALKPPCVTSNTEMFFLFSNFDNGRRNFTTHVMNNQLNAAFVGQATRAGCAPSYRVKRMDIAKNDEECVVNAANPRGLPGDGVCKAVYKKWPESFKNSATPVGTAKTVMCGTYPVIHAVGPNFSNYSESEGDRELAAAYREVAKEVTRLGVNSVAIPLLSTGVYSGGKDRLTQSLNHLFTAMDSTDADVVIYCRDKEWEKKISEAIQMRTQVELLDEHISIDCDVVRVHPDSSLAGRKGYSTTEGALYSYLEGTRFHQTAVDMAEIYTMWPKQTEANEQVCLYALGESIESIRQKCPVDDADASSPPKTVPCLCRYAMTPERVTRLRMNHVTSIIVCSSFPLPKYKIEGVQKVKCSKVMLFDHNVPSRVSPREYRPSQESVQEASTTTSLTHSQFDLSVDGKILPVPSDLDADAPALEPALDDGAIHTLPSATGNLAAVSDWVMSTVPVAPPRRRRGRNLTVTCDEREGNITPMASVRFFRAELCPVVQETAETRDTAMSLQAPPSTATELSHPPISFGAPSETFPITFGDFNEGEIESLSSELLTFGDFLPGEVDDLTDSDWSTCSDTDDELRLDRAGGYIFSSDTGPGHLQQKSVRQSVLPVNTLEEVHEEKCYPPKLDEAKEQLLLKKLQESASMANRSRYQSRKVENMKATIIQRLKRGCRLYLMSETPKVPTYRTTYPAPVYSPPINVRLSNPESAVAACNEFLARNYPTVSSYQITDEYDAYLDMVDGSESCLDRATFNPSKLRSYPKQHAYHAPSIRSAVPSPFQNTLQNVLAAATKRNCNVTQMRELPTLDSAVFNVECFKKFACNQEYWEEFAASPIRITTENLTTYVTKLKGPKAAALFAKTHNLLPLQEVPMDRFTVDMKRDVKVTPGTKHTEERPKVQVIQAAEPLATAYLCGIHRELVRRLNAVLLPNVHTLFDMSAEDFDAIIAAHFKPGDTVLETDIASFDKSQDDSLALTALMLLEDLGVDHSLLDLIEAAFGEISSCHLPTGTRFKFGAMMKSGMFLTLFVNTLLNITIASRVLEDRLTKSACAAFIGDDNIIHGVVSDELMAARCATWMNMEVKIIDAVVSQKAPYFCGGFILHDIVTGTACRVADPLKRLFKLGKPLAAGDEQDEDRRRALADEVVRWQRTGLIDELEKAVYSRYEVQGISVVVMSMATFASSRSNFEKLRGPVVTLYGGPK
* = called active by the depositor; i = inactive; ? = inconclusive; & = joins results of further samples; [ ] = remark or other dose. % is scaled to controls: 0 for no effect and ±100 for the full control effect; potency is read from the fitted curve at half-maximal effect.

SMILES	nsP2pro primary
COc1cccc(NC(=O)c2cc(-c3ccc(C)c(C)c3)nc3ccccc23)c1	1%
CC(C)[N+](C)(CCOC(=O)C1c2ccccc2Oc2ccccc21)C(C)C	1%
COc1ccc(C2CC(=O)Nc3c2c(=O)nc2c(C)cccn32)cc1 (stereo not drawn)	-22%
COc1cccc(C(c2sc3nc(-c4ccco4)nn3c2O)N2CCN(c3ccccc3F)CC2)c1 (stereo not drawn)	-21%
Cn1c(CO)c(-c2ccccc2)c2cc([N+](=O)[O-])ccc21	-5%
Cc1ccc(Nc2cc(C)c(C#N)c3nc4ccccc4n23)c(C)c1	-3%
O=C(Cn1c(=O)nc(-c2ccccc2)c2ccccc21)NCc1ccccc1Cl	-20%
O=S(=O)(c1ccc(F)cc1)N(CC(O)Cn1c2ccccc2c2ccccc21)c1ccccc1 (stereo not drawn)	-17%
CNC(=O)C(C)N(C)C(=O)c1coc(CN2CCN(c3ccccc3F)CC2)n1 (stereo not drawn)	?
O=C(Nc1ccc(Cl)c(Cl)c1)Nc1nnc(N2CCNCC2)s1	-3%
Cc1ccccc1Cn1cc(NC(=O)c2cc(-c3ccc(Cl)cc3)on2)cn1	-26%
O=C(c1cscn1)N1CCC2(CCCN(CCC3CCCCC3)C2=O)C1 (stereo not drawn)	-2%
Cc1cc(C)c(S(=O)(=O)Nc2cccc3cccnc23)c(C)c1	i
Cc1ccc(NC(=O)c2oc3ccccc3c2NC(=O)C23CC4CC(CC(C4)C2)C3)cc1	-17%
CC(=O)N1CCC(N[C@@H]2CO[C@H](CNC(=O)c3ccncc3)[C@H]2O)CC1	1%[39.2 µM]

The final seven entries of the part above are carried over, then new ones follow:
SMILES	nsP2pro primary
CNC(=O)C(C)N(C)C(=O)c1coc(CN2CCN(c3ccccc3F)CC2)n1 (stereo not drawn)	?
O=C(Nc1ccc(Cl)c(Cl)c1)Nc1nnc(N2CCNCC2)s1	-3%
Cc1ccccc1Cn1cc(NC(=O)c2cc(-c3ccc(Cl)cc3)on2)cn1	-26%
O=C(c1cscn1)N1CCC2(CCCN(CCC3CCCCC3)C2=O)C1 (stereo not drawn)	-2%
Cc1cc(C)c(S(=O)(=O)Nc2cccc3cccnc23)c(C)c1	i
Cc1ccc(NC(=O)c2oc3ccccc3c2NC(=O)C23CC4CC(CC(C4)C2)C3)cc1	-17%
CC(=O)N1CCC(N[C@@H]2CO[C@H](CNC(=O)c3ccncc3)[C@H]2O)CC1	1%[39.2 µM]
CCc1cccc(C)c1NC(=O)C1CCN(c2nn3c(=O)cc(C)nc3s2)CC1	-15%
COc1ccc(CNC(=O)CCC2CCCN(C(=O)CCN3CCCCO3)C2)c(OC)c1 (stereo not drawn)	i
COC(=O)[C@]1(C)CC[C@]2(C)CC[C@]3(C)C4=CC=C5C(=CC(=O)C(O)=C5C)[C@]4(C)CC[C@@]3(C)[C@@H]2C1	-4%
CC1(C)CC(=O)c2cc(-c3nc(-c4ccc(Br)cc4)cs3)c(=O)n(-c3ccccc3)c2C1	-25%
O=C(NCc1nc2cccnc2n1Cc1ccc(F)cc1)c1ccccc1C(F)(F)F	-17%
O=C(c1ccc(OC2CCN(C(=O)C3CCCC3)CC2)nc1)N1CCOCC1	i
O=C1NC(=NC2CCCCC2)C2(CCN(CC3CCCCC3)CC2)N1c1cc(F)cc(F)c1	-8%
CC(C)c1nc2c(c(-c3ccc(O)cc3)n1)CCN(C(=O)C1CCCC1)CC2	-8%
C=C1C(O)CC2C(C(=O)O)=COC(O[C@@H]3O[C@H](COC(=O)/C=C/c4ccc(O)cc4)[C@@H](O)[C@H](O)[C@H]3O)C12 (stereo partly drawn)	4%[10 µM]
Cc1ccc(-n2ncc(C(=O)N3CCN(Cc4ccccc4)CC3)c2C2CCN(C(=O)OC(C)(C)C)CC2)c(C)c1	-14%
CC(C)c1ccc2oc3nc(N)c(C(=O)O)cc3c(=O)c2c1	14%
CCC(=O)N1CCc2cc(S(=O)(=O)N3CCN(c4ccccc4F)CC3)ccc21	-16%
Cc1noc(C)c1C(=O)N1CCC2(CC1)C(=O)NCN2C(=O)Cc1ccccc1	-36%
Cc1ccnn1CCC(=O)N[C@@H]1COCC[C@H]1Oc1ccc(C(N)=O)cc1	i
CCOc1ccccc1NS(=O)(=O)c1ccc(-c2cnc(C3CC3)o2)cc1	11%
Cc1sc(C)c2c1C(=O)NS2(=O)=O	-7%
CCN(C1CCOCC1)C1CN(C(=O)C2CCCCC2)C1	2%
CN(C(=O)CSc1nncn2c1cc1occc12)c1ccccc1	4%
Cc1cccc(OCCCn2c(CCNC(=O)C(C)(C)C)nc3ccccc32)c1	-11%
Nc1nc(NCCNc2ncc(-n3ccnc3)c(-c3ccc(Cl)cc3Cl)n2)ccc1[N+](=O)[O-]	124%[activator]
COc1cccc(CNc2ccc(S(=O)(=O)Nc3nc4ccccc4o3)cc2)c1O	i
CC(=O)N(C(C)=O)n1c(C)nc2sc3c(c2c1=O)CCNC3	-13%
CCN(CC)CC(=O)OCC(=O)[C@@]1(O)CC[C@H]2[C@@H]3CCC4=CC(=O)CC[C@]4(C)[C@H]3[C@@H](O)C[C@@]21C	17%
COC1CN(c2ccc(C)cc2)C12CCNCC2 (stereo not drawn)	i
O=C1CCCC2=C1C1(CCCC1)N=C(Nc1nc3cc(Cl)ccc3o1)N2	0%
Cc1nc2c(NC3CCN(C(=O)c4cnccn4)CC3)cccn2n1	11µM*
O=C(NCC12CC3CC(CC(C3)C1)C2)c1cc2nc(-c3ccccc3)cc(C(F)(F)F)n2n1	-21%
CN1CC[C@H]2CN(S(=O)(=O)c3ccc(NC(N)=O)cc3)C[C@H]21	i
NCCCC(O)(P(=O)(O)O)P(=O)(O)O	-4%
COC1=C[C@]23CCCN2CCc2cc4c(cc2[C@@H]3[C@@H]1O)OCO4	?
CC1(C)O[C@H]2CC(=O)OC[C@@]23C1=C(O)C(=O)[C@]1(C)C3CC[C@@]2(C)[C@H](c3ccoc3)OC(=O)[C@H]3O[C@]321 (stereo partly drawn)	?
O=C(Nc1ccc2c(N3CCOCC3)ncnc2c1)c1cccc(Cl)c1	i
O=C(Cn1nc(-c2ccccc2)ccc1=O)NCCc1ccccc1	i
Nc1ccc(S(N)(=O)=O)cc1	9%
CNC(=O)N1CCC(C2CCN(C(=O)Cn3cccn3)C2)CC1 (stereo not drawn)	i
C=C1C(=O)O[C@@H]2C3C(=C(C)[C@@H](O)[C@@H](OC(=O)/C(=C/C)COC(C)=O)[C@@H]12)C(=O)[C@H]1O[C@@]31C (stereo partly drawn)	2.2µM*
COCCn1c(=N)c(C(=O)NCc2ccco2)cc2c(=O)n3cc(C)ccc3nc21	?
CCc1c(-c2ccccc2)nc2ccccc2c1C(=O)NCc1ccc(C)cc1	?
Cc1ccc(CNS(=O)(=O)c2ccc(C(=O)N(C)C)s2)cc1	-12%
N#Cc1ccc(S(=O)(=O)N2CCc3c(nc(-c4ccc(F)cc4)[nH]c3=O)C2)cc1	i
CNc1cc2c(cc1S(=O)(=O)Nc1ccc(C)c(C)c1)CCC(=O)N2	1%
CCn1cnc2c(Nc3ccc(CCC(=O)N=C(N)N)cc3)nc(C#N)nc21	i
O=C(Nc1cccc(F)c1)[C@@H]1C[C@@H](c2cccc(C(F)(F)F)c2)N(CC2CCOCC2)C1	i
CCCCCCCCCCCCCCCCCC(=O)OCC(C)O (stereo not drawn)	8%[39.2 µM]
COc1ccc(OC)c(NC(=O)CN2CCCN(Cc3cc(C)ccc3C)S2(=O)=O)c1	-16%

Structural class, those above with a COOH group.
SMILES	nsP2pro primary
C=C1C(O)CC2C(C(=O)O)=COC(O[C@@H]3O[C@H](COC(=O)/C=C/c4ccc(O)cc4)[C@@H](O)[C@H](O)[C@H]3O)C12 (stereo partly drawn)	4%[10 µM]
CC(C)c1ccc2oc3nc(N)c(C(=O)O)cc3c(=O)c2c1	14%

The list goes on.
SMILES	nsP2pro primary
C/C(=C\CCC1(C)C2CCC(C2)C1(C)O)C(=O)O (stereo not drawn)	?
Cc1cc(C)n(CCC(=O)N2CCC(Cc3noc(C4CC4)n3)C2)n1 (stereo not drawn)	-5%
CCCCCC=CCC=CCCCCCCCC(=O)OCC	?
COc1ccc(NC(=O)c2nc3sccn3c2-c2ccncc2)cc1	i
C[C@@H]1O[C@@H](O[C@H]2[C@@H]3C=CO[C@@H](O[C@@H]4O[C@H](CO)[C@@H](O)[C@H](O)[C@H]4O)[C@@H]3[C@@]3(CO)O[C@@H]23)[C@H](O)[C@H](OC(=O)/C=C/c2ccccc2)[C@H]1O	1%[10 µM]
CN(Cc1nccs1)c1ncnc2ccc(-c3ccc4c(c3)OCO4)cc12	2%&-9%
CN(C1CCCCC1)S(=O)(=O)c1ccc2c(c1)c(=O)c(C(=O)NCCc1ccccc1)cn2C	-12%
CC(=O)NCCc1ncc(C)n1C1CCC1	-15%
COc1cc(OC)c(N(C)C(=O)c2cn(C3CCCC3)c(=O)c3c2c2ccccc2n3C)cc1Cl	-13%
Clc1ccc(CCNc2nc3ccccc3c3nc(-c4ccccc4)nn23)cc1	-13%
O=c1[nH]cnc2c1ncn2[C@@H]1O[C@H](CO)[C@@H](O)[C@H]1O	-24%&-9%&7%
CN(C(=O)CSc1cn(CC(=O)N2CCOCC2)c2ccccc12)c1ccccc1	-32%
CCOc1ccccc1N(CC(=O)NCCSc1ccccc1)S(=O)(=O)c1ccccc1	-13%
CCOc1ccccc1CNC(=O)CN1C(=O)CCn2nc(-c3cn(C)c4ccccc34)cc21	-10%
Cn1c(N2CCCCS2(=O)=O)nc(C(=O)NCc2ccc(F)cc2)c(O)c1=O	-12%
O=C1Nc2ccccc2/C1=C\c1cc(Br)c(O)c(Br)c1	4%
CC(Oc1ccccc1)C(=O)Nc1nnc(S(=O)(=O)N2CCCCCC2)s1 (stereo not drawn)	-10%
CCn1cc(CN(C)CC(=O)N2CCCCCC2)ccc1=O	-16%
COc1ccc(OC)c(CNC(=O)CCCn2nc(C)c3c(C)n(-c4ccc(C)cc4)nc3c2=O)c1	-2%
Cc1ccc(Cl)cc1NC(=O)/C(C#N)=C\c1cn(Cc2ccc(F)cc2)c2ccccc12	-22%
Cc1cccc(OC(C)C(=O)NCC2(N(C)C)CCCCC2)c1C (stereo not drawn)	?
C/C(=C\CCC(C)CCO)C(=O)OC1(C)CCC2C(C(=O)O)=COC(OC3OC(CO)C(O)C(O)C3O)C21 (stereo not drawn)	29%[10 µM]
Cn1nnnc1Sc1ncnc2scc(-c3cccc([N+](=O)[O-])c3)c12	i
O=C1CCCC2=C1C1(CCCOC1)N=C(Nc1nc3ccccc3o1)N2 (stereo not drawn)	i
Cc1ccc2c(n1)N(C)[C@H](CO)CCN(Cc1cccc(Cl)c1)C2	-6%[39.2 µM]
CN1C[C@H](O)C[C@H]1c1nnc2n1CCN(C(=O)C1CCCCC1)CC2	1%
CC(C)(C)NCC(O)COc1ccccc1C1CCCC1 (stereo not drawn)	7%
COc1ccc(CN2C(=O)C(=O)c3cc(S(=O)(=O)N4CCC[C@H]4COc4cccnc4)ccc32)cc1	2%
Cc1ccc(NS(=O)(=O)c2cc3c(cc2Cl)NC(=O)CO3)cc1C	1%
CN(CCO)C[C@@H]1CN(C(=O)CCc2nc3ccc(F)cc3[nH]2)C[C@@H]1CO	i
Cc1ccc2ccc3cc(C(=O)N4CCN(c5ccccc5F)CC4)nc3c2[nH]1	-23%
Cc1ccc(OCCSc2nc(C)c(Cc3ccccc3)c(=O)[nH]2)cc1	-16%
CN1c2cccnc2CN(Cc2ccc(C(F)(F)F)cc2)CC[C@H]1CO	6%[39.2 µM]
CC(/C=C/C1(O)C(C)CC(O)CC1(C)C)OC1OC(CO)C(O)C(O)C1O (stereo not drawn)	3%
Cc1nn(C(=O)c2cccc([N+](=O)[O-])c2C)c(C)c1S(=O)(=O)N1CCCCCC1	-19%
Cc1cc(C)c(Cn2c3ccccc3c3cnn(CC(=O)NCC(C)c4ccccc4)c(=O)c32)c(C)c1 (stereo not drawn)	-11%
O=C(COc1ccc(-c2nnc3n2CCCC3)cc1)NCc1ccccc1Br	i
Cc1cnccc1CN(C)Cc1cc2n(n1)CCNC2	2%
CCN1C(=O)C2CC3(CCN(C(=O)c4cc(C)n(CCOC)c4C)CC3)CN2C1=O (stereo not drawn)	0%
CCC(C)NC(=O)c1ccccc1NC(=O)CN1C(=O)c2cccc3cccc1c23 (stereo not drawn)	-11%
CCOc1cc(S(=O)(=O)n2ccnc2C(C)C)ccc1Cl	8.9µM*
Cc1ccccc1NC(=O)C(=O)NCC1(c2ccccc2)CCCC1	-23%
COc1cc(Nc2ncc(F)c(Nc3ccc4c(n3)NC(=O)C(C)(C)O4)n2)cc(OC)c1OC	1%&-19%&-10%
COc1cccc(NC(=O)CCN2C(=O)c3ccccc3Sc3ncccc32)c1	-16%
Cc1cc(C)n2ncc(C(=O)Nc3cc(Cl)cc(Cl)c3)c2n1	3%

The final 6 entries of the part above lead into the next:
SMILES	nsP2pro primary
CCC(C)NC(=O)c1ccccc1NC(=O)CN1C(=O)c2cccc3cccc1c23 (stereo not drawn)	-11%
CCOc1cc(S(=O)(=O)n2ccnc2C(C)C)ccc1Cl	8.9µM*
Cc1ccccc1NC(=O)C(=O)NCC1(c2ccccc2)CCCC1	-23%
COc1cc(Nc2ncc(F)c(Nc3ccc4c(n3)NC(=O)C(C)(C)O4)n2)cc(OC)c1OC	1%&-19%&-10%
COc1cccc(NC(=O)CCN2C(=O)c3ccccc3Sc3ncccc32)c1	-16%
Cc1cc(C)n2ncc(C(=O)Nc3cc(Cl)cc(Cl)c3)c2n1	3%
C[C@@]12C(=O)OC(=O)[C@]1(C)C1CCC2O1	5%
Cc1ccc(CN2CCc3nc(N4CCN(C)CC4)ncc3C2)cc1	-8%
Cc1ccc(NC(=O)CN2C(=O)C(c3ccc(F)cc3)=NC2(C)C)c(C)c1	-16%
COc1ccc(CC(=O)N2CCC(c3n[nH]c(=O)n3Cc3ccc(F)cc3)CC2)cc1	i
COc1cccc(NC(=O)CCC2CCN(C(=O)C(C)n3cncn3)CC2)c1 (stereo not drawn)	4%
Cc1ccccc1NC(=O)c1c(NC(=O)Cc2ccccc2)sc2c1CCC2	-14%

Not all compounds are listed; count on the stated rates, not on these rows.
